Rango dissoc inh – qHTS Assay for Inhibitors of RanGTP induced Rango (Ran-regulated importin-beta cargo) - Importin beta complex dissociation | Potency, µM (doses to about 46.1 µM), inactives show top-dose activity change, negative = inhibition | Snurportin-1 (Homo sapiens) + GTP-binding nuclear protein Ran (Homo sapiens) + Importin … | Biochemical FRET Rango-importin beta, RanGTP-induced dissociation | 0.071% of 340,000 active; active means falling FRET ratio curve, often poorly fitted, with flat reads before Ran was added; inconclusive means other falling curves, or compound fluorescence or quenching; inactive means flat or rising ratio curve;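 note: potency is the fitted concentration of half-maximal effect; % of control where 0% means no effect; nearly all actives have a fitted effect of over 45% in size; -100% = wells without RanGTP and RCC1; the record marks most hits as doubtful in a second field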
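Two FRET readings bracket the reaction: one 5 min after compound meets Rango–importin beta, another 45 min after RanGTP-RCC1 (0.6 uM Ran, 0.2 uM RCC1, 2 mM GTP) is added. Only the second defines inhibition.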
GLA inh pH 4.5 – qHTS Assay for Inhibitors of Human alpha-Galactosidase at pH 4.5. activity change, negative = inhibition, % at 105 µM. 230,000 tested, under 10 active. purified enzyme, 4-MU-alpha-Gal fluorescence, pH 4.5; inconclusive = small, poorly fitted or top-dose-only inhibition, or a rising curve; inactive = flat fitted curve, though single readings scatter; no compound was filed as active;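 note: 0% = full activity with enzyme and -100% = basal without enzyme; dose as in the result columns while the protocol names 77 µM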
Target sequence (P06280 whole entry, looked up): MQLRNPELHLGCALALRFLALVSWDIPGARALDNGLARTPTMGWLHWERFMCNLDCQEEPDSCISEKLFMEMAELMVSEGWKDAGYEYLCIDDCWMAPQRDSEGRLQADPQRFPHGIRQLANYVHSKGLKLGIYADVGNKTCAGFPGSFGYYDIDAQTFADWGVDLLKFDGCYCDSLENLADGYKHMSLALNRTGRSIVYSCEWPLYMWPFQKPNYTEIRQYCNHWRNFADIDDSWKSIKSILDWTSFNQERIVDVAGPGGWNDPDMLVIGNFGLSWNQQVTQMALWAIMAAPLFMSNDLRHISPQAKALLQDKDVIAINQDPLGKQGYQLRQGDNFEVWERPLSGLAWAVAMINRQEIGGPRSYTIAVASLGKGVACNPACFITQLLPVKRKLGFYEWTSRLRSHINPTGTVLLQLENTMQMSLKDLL
Rango complex inh – qHTS Assay for Inhibitors of Rango (Ran-regulated importin-beta cargo) - Importin beta complex formation; Importin subunit beta-1 (Homo sapiens), Q14974; Rango CFP/YFP FRET sensor + importin beta, 45 min; Potency, µM (top dose mostly 92.2 µM), for the others: top-dose inhibition of complex formation; 0.031% of 340,000 active; AID 540263, 2011; active = rising FRET ratio curve, often small or poorly fitted; inconclusive = mostly compound fluorescence or quenching in the first reads; inactive = flat curves in all reads;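 note: potency is the fitted concentration of half-maximal effect; 0% = DMSO wells and 100% = buffer wells lacking importin beta; nearly all actives have a fitted effect of over 15% in size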
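Inhibition scored from the CFP 486 nm/YFP 530 nm FRET ratio 45 min after adding 0.125 microM importin beta to 50 nM Rango biosensor preincubated 5 min with compound (room temperature, PBS with DTT, Tween-20, BSA). No-importin wells as positive control.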
miR-21 reporter – qHTS Assay for Modulators of miRNAs and/orActivators of miR-21; Potency, µM (top dose mostly 38.3 µM), for inactives: top-dose reporter change, positive = more light; AID 2288, 2010; HeLa miR-21 FLuc reporter, luciferase, 48 h; 340,000 tested, under 10 active; active = well fitted rising curve with a large enough effect; inconclusive = small, poorly fitted or top-dose-only effect; inactive = no such curve, though single readings can be large or run the other way;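 note: % of control where 0% means no effect; miR-21 action dims this reporter so a rising signal means less miR-21 action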
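HeLa cells endogenously expressing miR-21, stably carrying CMV-driven firefly luciferase with a downstream miR-21 binding site, 2000 cells/well. Titrations up to approximately 40 uM, 48 hours; luciferase luminescence read.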
An asterisk follows results filed as active; ? = inconclusive; · = not tested or not shown. The list is partial (hit frequency here may not be typical).

SMILES | Rango dissoc inh | GLA inh pH 4.5 | Rango complex inh | miR-21 reporter
Cc1c(C(=O)NC(C)CN2CCCCC2)oc2ccccc12 (configuration not stated) | 2% | -9 | 1.4% | -19%
COC(=O)c1c(C)[nH]c(C)c1-c1ccccc1 | 2% | 4 | 1.0% | 0%
Cc1nn(Cc2ccc([N+](=O)[O-])cc2)c(=O)n1-c1cccc(F)c1 | ? | -20 | ? | -9%
COc1ccc(CC(=O)NCc2ccccc2)cc1OC | -2% | · | 0.1% | 0%
O=c1[nH]nc(-c2n[nH]c(=O)o2)o1 | -8% | · | -0.7% | ·
CC(=O)Nc1ccc(OCC(O)CN2CCCCC2C)cc1 (configuration not stated) | 1% | 0 | -1.9% | 1%
COc1ccc(-c2nnc(SCC(=O)N/N=C/c3ccccc3C(=O)O)n2-c2ccccc2)cc1 | 1% | -7 | 0.0% | -2%
COc1ccc(Cl)cc1NC(=O)Nc1ccccc1C(N)=O | -2% | -5 | 2.0% | 2%
Cc1cccc(C)c1OCCCN1CCCC1 | 12% | 8 | 0.5% | -4%
COc1ccc(O)c(/C=C(\C#N)C(=O)Nc2cccnc2)c1 | ? | -9 | ? | -20%
Oc1c(Br)cc(Cl)cc1C=Nc1ccccc1Br | ? | 10 | ? | -1%
Cc1cccc(CN2C[C@]34CC[C@@H](C[C@@H]3S2(=O)=O)O4)c1 | 3% | 6 | -0.7% | -4%
COC(=O)C1Sc2[nH]c(=O)sc2C(c2ccc(Cl)cc2)C1C(=O)OC (configuration not stated) | -22% | 5 | 4.9% | -13%
COc1cc(C2C(C#N)=C(N)OC3=C2C(=O)CC(C)(C)C3)ccc1OC(=O)N1CCOCC1 (configuration not stated) | 15% | 8 | 1.1% | -1%
CCOC(=O)N1CCN(C(=O)CN(c2ccccc2OC)S(=O)(=O)c2ccc(C)cc2)CC1 | 5% | 1 | -0.7% | 4%
Cc1ccc(NCc2nnc(SC(C)C(=O)N/N=C/c3ccc(C)o3)n2-c2ccccc2)cc1 (configuration not stated) | 13% | -4 | 0.1% | -4%
O=C(CNC(=O)c1ccc(F)cc1)NCc1ccc(Cl)cc1 | 1% | · | -0.4% | -1%
O=c1c2c(nc3n1CCCCC3)sc1c(O)c(Br)ccc12 | 1% | 9 | -6.7% | -10%
O=C(NCCc1c[nH]c2ccccc12)C(F)(F)F | -5% | -20 | -3.4% | -1%
CCN1CNC(=S)N(c2ccccc2C)C1 | -9% | -6 | -1.1% | -1%
CCCC(c1nnnn1CC1CCCO1)N1CCN(c2nc3ccccc3s2)CC1 (configuration not stated) | -5% | 4 | 4.2% | -5%
Nn1c(SCc2ccc(F)cc2)nnc1-c1ccncc1 | 0% | 5 | 4.2% | -3%
O=C1N[C@@H](Cc2c[nH]c3ccccc23)COC(=O)[C@@H](Cc2ccc(F)cc2)C/C=C\C[C@H]1CC(=O)N(CCO)Cc1ccccc1 | ? | · | 0.9% | ·
O=C(O)CN1C(=O)/C(=C\C(Br)=C\c2ccccc2)SC1=S | -5% | · | 0.0% | -5%
O=C(NCc1cccs1)C12CC3CC(CC(C3)C1)C2 | -2% | 2 | -1.4% | 0%
CCOc1ccc(Nc2nc(N3CCCCC3)nc(N3CCCCC3)n2)cc1 | 0% | 0 | -1.2% | 2%
CC1CC(=O)N(CC(=O)N2CCCC2)c2ccccc2S1 (configuration not stated) | 12% | -1 | -1.6% | -6%
COc1cc(C(C)=O)ccc1OC(=O)C(C)N1C(=O)c2ccccc2C1=O (configuration not stated) | 20% | 7 | -0.4% | -5%
COc1nc(Nc2nc3ccccc3c(=O)[nH]2)nc2ccc(C)cc12 | -1% | -2 | 7.2% | 0%
O=C(c1cnn2c(C(F)F)cc(C3CC3)nc12)N1CCOCC1 | 6% | 0 | 0.5% | -14%
CC(C)c1ccc(S(=O)(=O)N2CCC(C(=O)NCC3(N(C)C)CCCCC3)CC2)cc1 | 1% | · | -0.5% | -5%
CSCCC(NC(=O)c1ccccc1Cl)C(=O)OCC(=O)N1CCCC1=O (configuration not stated) | 0% | · | -0.5% | ·
CSc1ccccc1NC(=O)c1c(C)noc1C | -6% | 0 | 2.6% | -1%
O=C(COc1ccc(S(=O)(=O)NCc2ccccc2)cc1)NCc1cccnc1 | -2% | · | -0.3% | 4%
CC1CCN(CCC(=O)Nc2ccc3c(c2)CCC3)CC1 | 2% | -6 | 1.7% | -8%
O=c1[nH]c(=O)c2nnc(N/N=C/c3ccccc3F)nc2[nH]1 | -14% | -4 | -1.2% | -1%
O=C(CCCN1C(=O)c2cccnc2C1=O)Nc1ccc(Br)cc1 | 12% | -3 | 3.6% | 0%
O=C(c1ccc(Cl)c(S(=O)(=O)N2CCCCCC2)c1)N1CCN(c2ccccc2O)CC1 | -7% | -2 | 1.3% | 26%
COC(=O)C1=C(C)NC(=O)C1(Nc1ccc(Cl)cn1)C(F)(F)F (configuration not stated) | -5% | 0 | 2.2% | -4%
COC(=O)C1=C(C)NC(C)=C(C(=O)OC)C1C(=O)OCC(=O)c1ccc(F)cc1 | -20% | -20 | 0.7% | -4%
Cc1ccc(-n2cc(CNCCN3CCOC3=O)c(-c3ccc(F)cc3)n2)cc1 | -25% | · | 4.5% | -23%
CCOc1cc(/C=C/C(=O)c2ccc(C)cc2)ccc1OCC(=O)N(C)C | -10% | 22 | ? | ?
CC(=O)N=Nc1[nH]c(N)c2ccccc12 | -9% | 10 | 0.3% | 1%
COC(=O)C1(Cc2ccc(O)c(CC3OC3(C)C)c2)OC(=O)C(O)=C1c1ccc(O)cc1 (configuration not stated) | -12% | -4 | 0.9% | -8%
Cc1cccc(CS(=O)(=O)c2nnc([C@H](Cc3ccccc3)NC(=O)OC(C)(C)C)o2)c1 | 0% | 4 | 1.6% | ?
O=C(O)CCc1nc2cc(C(F)(F)F)ccc2n(Cc2ccccc2)c1=O | 5% | · | -5.2% | -7%
Cc1nc(N2CCN(S(=O)(=O)c3ccc(F)cc3)CC2)c2c(-c3cccs3)csc2n1 | -5% | ? | ? | 21%
COCCn1c(SCc2nc3scc(-c4ccc(Cl)cc4)c3c(=O)[nH]2)nnc1-c1cccc(C)c1 | -6% | -10 | -2.4% | 12%
COc1cccc(C(=O)Nc2ccccc2)c1 | -7% | 5 | 0.8% | -35%
CCNc1nc(NCC)nc(NS(=O)(=O)c2ccc(N)cc2)n1 | 0% | · | 7.5% | 3%
C=CCn1cnc2c(sc3nc(C)cc(C)c32)c1=O | 13% | 0 | 0.7% | -27%
Cc1ccc(S(=O)(=O)N2CCN(C(=O)COC(=O)c3oc4ccccc4c3C)CC2)cc1 | -9% | · | -1.7% | ·
CCN1CCCC1CN(Cc1cc2ccc(C)cc2[nH]c1=O)C(=S)Nc1ccccc1C(=O)OC (configuration not stated) | 11% | -7 | 3.1% | -4%
O=C1[C@H]2[C@@H](c3ccc(F)cc3)N3C(=O)N(c4cccc(F)c4)C(=O)[C@@]3(Cc3ccc(Cl)cc3)[C@H]2C(=O)N1C1CCCCC1 | 0% | · | -2.3% | ·
CC(C)(C)c1ccc(S(=O)(=O)N2CCN(Cc3cc4c(cc3O)OCO4)CC2)cc1 | -5% | · | -4.7% | ·
COc1cc2c(cc1OC)CN(C(=O)COc1ccccc1[N+](=O)[O-])CC2 | -4% | · | -0.7% | 1%
CCSC1=N/C(=C\c2ccccc2)C(=O)N1 | ? | 13 | ? | -7%
CCOC(=O)c1ccc(NC(=O)CSc2nnnn2C2CCCCC2)cc1 | 7% | 1 | -0.9% | -5%
CCN(CC)Cc1c(O)ccc2c([N+](=O)[O-])c(C)n(-c3ccc(OC)cc3)c12 | -5% | -4 | 5.0% | 29%
Cc1ccc(S(=O)(=O)N(C)CC(=O)N2CCCc3ccccc32)cc1 | 12% | 14 | 4.3% | -15%
(cont.)
SMILES | Rango dissoc inh | GLA inh pH 4.5 | Rango complex inh | miR-21 reporter
COc1ccc(OC)c(S(=O)(=O)Nc2c(C)n(C)n(-c3ccccc3)c2=O)c1 | -13% | · | 0.9% | -6%
COc1ccc(NC(C)=O)cc1S(=O)(=O)NCCc1ccccn1 | -12% | · | -0.7% | ·
Cc1cc(C)cc(N(C(=O)c2csnn2)C(C(=O)NC2CCCCC2)c2ccncc2)c1 (configuration not stated) | -6% | · | 0.9% | -3%
Cc1ccc(-c2cnc(-c3ccccc3C(=O)O)o2)cc1 | -10% | · | -1.0% | -42%
O=C(N/N=C/c1ccsc1)c1cc2ccccc2o1 | -10% | · | 3.8% | -10%
NC(=S)N=Nc1c(O)n(CCCl)c2ccccc12 | 14% | -7 | 2.9% | -11%
O=C(N/N=C/c1ccccc1Cl)C1CC1 | 3% | · | 5.0% | -8%
COCCNC(=O)NC(=O)COC(=O)C1(c2ccc(Cl)cc2)CC1 | -12% | 1 | -1.5% | -1%
CN1CCN(C(=O)C2CCN(S(=O)(=O)c3ccc(F)cc3)CC2)CC1 | 1% | · | -1.0% | -4%
O=C(NCc1cccnc1)C(=O)Nc1nc(C23CC4CC(CC(C4)C2)C3)cs1 | 14% | -29 | -0.2% | 1%
CCN(CC(=O)Nc1ccccc1OC)CC(=O)Nc1sccc1C#N | 8% | -2 | -3.6% | -11%
COCC1CCCN(C(=O)c2ccc(OC3CCN(Cc4ccccn4)CC3)cc2)C1 (configuration not stated) | -8% | 7 | 1.2% | -1%
N#CCCn1cc(C(=O)O)c(-c2ccc3ccccc3c2)n1 | -8% | · | 2.9% | 0%
CC1C(c2ccccc2)=NNc2nc3c(c(=O)n(C)c(=O)n3C)n21 (configuration not stated) | -3% | 4 | -4.5% | 2%
CC(C)(C)NC(=O)C(c1ccc(O)cc1)N(C(=O)Cn1nnc(-c2ccc(F)cc2)n1)c1ccccc1F (configuration not stated) | 1% | -19 | -0.5% | 13%
CN1C(=O)C(O)(CC(=O)c2cccs2)c2ccccc21 (configuration not stated) | 6% | 9 | 2.1% | -2%
OC1CCCN(c2c3c(nc4cc(-c5cccc(F)c5)nn24)CCCC3)C1 (configuration not stated) | 28% | 0 | -2.0% | -61%
Cc1csc2ncc(C(=O)Nc3cccc(C(F)(F)F)c3)c(=O)n12 | 15% | 3 | -0.4% | -6%
Cc1ccc(NC2CCCN(C(=O)CSc3ccncc3)C2)cc1C (configuration not stated) | -7% | · | 1.2% | 6%
O=C(CN1C(=O)NC2(CCCC2)C1=O)OCc1cc(=O)n2cc(Br)ccc2n1 | 11% | -10 | 1.5% | 4%
O=c1ccc2cc(S(=O)(=O)N3CCN(c4ccc(Cl)cc4)CC3)ccc2o1 | -11% | · | 1.9% | -2%

Reformatted with tabs: entries from further up
smiles	Rango dissoc inh	GLA inh pH 4.5	Rango complex inh	miR-21 reporter
COc1cc(C2C(C#N)=C(N)OC3=C2C(=O)CC(C)(C)C3)ccc1OC(=O)N1CCOCC1 (configuration not stated)	15%	8	1.1%	-1%
CCOC(=O)N1CCN(C(=O)CN(c2ccccc2OC)S(=O)(=O)c2ccc(C)cc2)CC1	5%	1	-0.7%	4%
Cc1ccc(NCc2nnc(SC(C)C(=O)N/N=C/c3ccc(C)o3)n2-c2ccccc2)cc1 (configuration not stated)	13%	-4	0.1%	-4%
O=C(CNC(=O)c1ccc(F)cc1)NCc1ccc(Cl)cc1	1%	·	-0.4%	-1%
O=c1c2c(nc3n1CCCCC3)sc1c(O)c(Br)ccc12	1%	9	-6.7%	-10%

Entries from the list above with two or more sulfur atoms, in the order listed:
SMILES | Rango dissoc inh | GLA inh pH 4.5 | Rango complex inh | miR-21 reporter
COC(=O)C1Sc2[nH]c(=O)sc2C(c2ccc(Cl)cc2)C1C(=O)OC (configuration not stated) | -22% | 5 | 4.9% | -13%
O=C(O)CN1C(=O)/C(=C\C(Br)=C\c2ccccc2)SC1=S | -5% | · | 0.0% | -5%
Cc1nc(N2CCN(S(=O)(=O)c3ccc(F)cc3)CC2)c2c(-c3cccs3)csc2n1 | -5% | ? | ? | 21%
COCCn1c(SCc2nc3scc(-c4ccc(Cl)cc4)c3c(=O)[nH]2)nnc1-c1cccc(C)c1 | -6% | -10 | -2.4% | 12%

High-throughput results as filed in PubChem BioAssay.
